Yeast UUG start: alters start codon recognition fidelity in yeast; S. cerevisiae UUG-firefly luciferase reporter, luminescence/redox ratio; activity score, % at 18.7 µM; 350,000 tested, 0.13% active; AID 602363;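 active = replicate mean at a twofold rise or more, about +100% in these data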;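 also: firefly luciferase made from a UUG start codon reports start codon fidelity; reporter light over untreated wells divided by growth signal over untreated wells; some hits fall short of that in this replicate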
HIV Env fusion: blocks HIV Env-driven cell-cell fusion. HeLa-JRFL Env/CEM21 cell fusion, luciferase. inhibition, % at 12.3 µM. 360,000 tested, 1.1% active. AID 651610;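 active = mean replicate inhibition score of at least 50 and every replicate individually at or above 50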;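 also: 0% = plate neutral controls and 100% = maraviroc near 300 nM; one replicate is shown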
The depositor's hits bear a star; [ ] = dose if it differs, or a comment. These rows are one share of the data; rates above refer to the full screens.

Yeast UUG start | HIV Env fusion | SMILES
-10 | -81[16.7 µM] | COCCOC(=O)N1C(=O)[C@@]2(c3cc(C#Cc4ccc(OC)cc4)ccc31)[C@H](c1ccccc1OCCO)N1[C@H](c3ccccc3)[C@H](c3ccccc3)OC(=O)[C@H]1[C@@H]2C(=O)NC[C@H](O)c1ccccc1
0 | 23[16.7 µM] | C[C@H]1CN([C@@H](C)CO)C(=O)c2cc(C#CCc3ccccc3)cnc2O[C@H]1CN(C)C(=O)C1CCCCC1
8 | 6[16.7 µM] | CCCC#Cc1cnc2c(c1)C(=O)N([C@@H](C)CO)C[C@H](C)[C@@H](CN(C)C(=O)C1CCC1)O2
17 | -21[16.7 µM] | C[C@@H]1CN([C@H](C)CO)C(=O)c2cc(NS(=O)(=O)c3ccc(F)cc3)ccc2O[C@@H](C)CCCCO[C@H]1CN(C)CC1CCCCC1
23 | 8[16.7 µM] | C[C@H]1CCCCO[C@@H](CN(C)S(=O)(=O)c2cn(C)cn2)[C@@H](C)CN([C@@H](C)CO)C(=O)c2cc(NS(=O)(=O)c3cccs3)ccc2O1
-2 | 64*[16.7 µM] | CCCC#Cc1ccc2c(c1)O[C@H](CN(C)S(=O)(=O)c1cccc(F)c1)[C@H](C)CN([C@@H](C)CO)S2(=O)=O
-9 | -23[16.7 µM] | COc1ccc(NC(=O)Nc2ccc3c(c2)CC(=O)N([C@@H](C)CO)C[C@H](C)[C@H](CN(C)S(=O)(=O)c2cn(C)cn2)O3)cc1
0 | 7[16.7 µM] | C[C@@H]1CN([C@@H](C)CO)C(=O)c2cc(C#Cc3cccc(F)c3)cnc2O[C@@H]1CN(C)CC1CCCC1
19 | 12[16.7 µM] | C[C@@H]1CCCCO[C@@H](CN(C)S(=O)(=O)c2cn(C)cn2)[C@@H](C)CN([C@@H](C)CO)C(=O)c2cc(NC(=O)C3CCCCC3)ccc2O1
-3 | -7[16.7 µM] | Cc1noc(C)c1NC(=O)Nc1ccc2c(c1)CC(=O)N([C@@H](C)CO)C[C@@H](C)[C@H](CN(C)CC1CC1)O2
-6 | -11[16.7 µM] | COc1ccc(NC(=O)Nc2ccc3c(c2)[C@H]2C[C@H](CC(=O)N4CCOCC4)O[C@@H](CO)[C@H]2O3)cc1
4 | 5[16.7 µM] | CCCNC(=O)N(C)C[C@H]1Oc2cc(C#CC3CC3)ccc2S(=O)(=O)N([C@H](C)CO)C[C@H]1C
8 | 27[16.7 µM] | CCCC(=O)Nc1ccc2c(c1)C(=O)N(C)[C@@H]1CC[C@H](CC(=O)OC)O[C@H]1CO2
26 | -20[16.7 µM] | C[C@@H]1CCCCO[C@@H](CN(C)Cc2ccccc2)[C@H](C)CN([C@@H](C)CO)C(=O)c2cc(NC(=O)Nc3ccc(F)cc3)ccc2O1
-15 | -2[16.7 µM] | Cc1ccc(S(=O)(=O)Nc2ccc3c(c2)C(=O)N([C@H](C)CO)C[C@H](C)[C@@H](CN(C)S(C)(=O)=O)OCCCC[C@@H](C)O3)cc1
9 | 1[16.7 µM] | C[C@@H]1CN([C@@H](C)CO)C(=O)c2cc(NC(=O)C3CCCCC3)ccc2O[C@@H](C)CCCCO[C@H]1CN(C)Cc1ccncc1
-4 | -22[16.7 µM] | COc1ccc(S(=O)(=O)Nc2cccc3c2O[C@H](CN(C)C(=O)Nc2ccccc2)[C@H](C)CN([C@@H](C)CO)C3=O)cc1
-5 | 6[16.7 µM] | O=C(C[C@H]1CC[C@@H](NC(=O)Nc2cc(F)ccc2F)[C@H](CO)O1)NCc1ccc2c(c1)OCO2
13 | -4[16.7 µM] | CCCC(=O)Nc1ccc2c(c1)OC[C@@H](C)N(C(=O)C1CCCC1)C[C@H](C)[C@H](OC)CN(C)C2=O
34 | -6[16.7 µM] | C[C@@H]1CCCCO[C@H](CN(C)CC2CCCCC2)[C@H](C)CN([C@H](C)CO)C(=O)c2cc(NC(=O)Nc3ccccc3)ccc2O1

Next section.
Yeast UUG start | HIV Env fusion | SMILES
0 | -8[16.7 µM] | CC(C)c1cn(CC[C@@H]2CC[C@@H](NC(=O)C3CCCCC3)[C@H](CO)O2)nn1
-5 | 41[16.7 µM] | C[C@H]1CN([C@@H](C)CO)C(=O)Cc2cc(NC(=O)Nc3ccc4c(c3)OCO4)ccc2O[C@H]1CN(C)Cc1ccc(Cl)c(Cl)c1
8 | -4[16.7 µM] | C[C@H](CO)N1C[C@H](C)[C@H](CN(C)Cc2ccc(-c3ccccc3)cc2)Oc2c(NC(=O)C3CCCCC3)cccc2C1=O
-3 | 18[16.7 µM] | C[C@H](CO)N1C[C@H](C)[C@H](CN(C)C(=O)CC2CC2)Oc2cc(C#CC(C)(C)O)ccc2S1(=O)=O
6 | 10[16.7 µM] | O=C(CC1CC1)Nc1ccc2c(c1)[C@H]1C[C@@H](CC(=O)N3CCOCC3)O[C@@H](CO)[C@H]1O2
4 | -9[16.7 µM] | C[C@H](CO)N1C[C@H](C)[C@H](CN(C)C(=O)Nc2ccc(F)cc2)Oc2c(NC(=O)C3CC3)cccc2C1=O
-5 | 31[16.7 µM] | O=C(C[C@H]1CC[C@H](NC(=O)c2cccc(F)c2)[C@H](CO)O1)NCc1ccc(Oc2ccccc2)cc1
13 | -72[16.7 µM] | C[C@H]1CN([C@@H](C)CO)C(=O)c2cccc(NC(=O)NC3CCCCC3)c2O[C@H]1CN(C)Cc1ccc(Cl)c(Cl)c1
8 | 14[16.7 µM] | Cc1cc(C)cc(NC(=O)Nc2ccc3c(c2)C(=O)N(C)[C@H]2CC[C@@H](CC(=O)O)O[C@@H]2CO3)c1
-1 | -6[16.7 µM] | CC(=O)N(C)C[C@@H]1Oc2ncc(C#Cc3ccc(F)cc3)cc2C(=O)N([C@H](C)CO)C[C@@H]1C
4 | 36[16.7 µM] | C[C@H]1CCCCO[C@@H](CN(C)S(=O)(=O)c2ccccc2)[C@@H](C)CN([C@@H](C)CO)C(=O)c2cc(NS(=O)(=O)c3ccccc3)ccc2O1
-8 | -8[16.7 µM] | O=C(N[C@H]1CC[C@H](CC(=O)N2CCN(c3ccccc3)CC2)O[C@@H]1CO)c1ccncc1
-8 | -6[16.7 µM] | C[C@@H]1CN([C@H](C)CO)C(=O)c2cc(C#CC3CC3)cnc2O[C@H]1CN(C)Cc1ccncc1
-10 | -3[16.7 µM] | COc1cccc(CNC(=O)C[C@@H]2CC[C@@H](NC(=O)C3CC3)[C@@H](CO)O2)c1
7 | 29[16.7 µM] | C[C@@H]1CN([C@H](C)CO)C(=O)c2cc(NC(=O)C3CCCCC3)ccc2O[C@@H](C)CCCCO[C@H]1CN(C)S(=O)(=O)c1cn(C)cn1
6 | 19[16.7 µM] | C[C@@H]1CN([C@H](C)CO)C(=O)c2cc(NC(=O)Nc3ccccc3)ccc2O[C@@H](C)CCCCO[C@@H]1CN(C)Cc1ccc(Cl)c(Cl)c1
-16 | -3[16.7 µM] | CO[C@H]1CN(C)C(=O)c2ccc(NC(=O)c3ccno3)cc2OC[C@@H](C)N(S(C)(=O)=O)C[C@@H]1C
1 | 18[16.7 µM] | C[C@H]1CN([C@@H](C)CO)C(=O)Cc2cc(NC(=O)Nc3cccc4ccccc34)ccc2O[C@@H]1CN(C)S(=O)(=O)c1ccc(Cl)cc1
5 | 1[16.7 µM] | C[C@H](CO)N1C[C@H](C)[C@@H](CN(C)Cc2ccc(F)cc2)Oc2ncc(-c3ccncc3)cc2C1=O
1 | 0[16.7 µM] | O=C(Nc1ccc2c(c1)OCO2)N[C@@H]1CC[C@@H](CCNC(=O)C2CCCC2)O[C@@H]1CO

The list goes on:
Yeast UUG start | HIV Env fusion | SMILES
2 | -8[16.7 µM] | CCNC(=O)C[C@@H]1CC[C@@H]2[C@H](COc3ccc(NC(=O)Nc4ccc(C)cc4)cc3C(=O)N2C)O1
19 | -1[16.7 µM] | CCCN(C)C[C@H]1Oc2ncc(C#Cc3ccc(OC)cc3)cc2C(=O)N([C@@H](C)CO)C[C@H]1C
14 | -83[16.7 µM] | CCCN(C)C[C@H]1OCCCC[C@@H](C)Oc2ccc(NC(=O)c3ccccc3)cc2C(=O)N([C@H](C)CO)C[C@H]1C
5 | 33[16.7 µM] | C[C@H](CO)N1C[C@H](C)[C@H](CN(C)C(=O)C2CCCCC2)Oc2cc(-c3ccc(F)cc3)ccc2S1(=O)=O
-7 | -10[16.7 µM] | COCC(=O)N(C)C[C@@H]1Oc2ncc(-c3ccccc3F)cc2C(=O)N([C@@H](C)CO)C[C@H]1C
-1 | 1[16.7 µM] | C[C@H]1CN([C@@H](C)CO)C(=O)c2cc(-c3cccc(C#N)c3)cnc2O[C@@H]1CN(C)C(=O)C1CC1
1 | -2[16.7 µM] | C[C@H](CO)N1C[C@H](C)[C@@H](CN(C)C(=O)Nc2ccc(F)cc2)Oc2ncc(C3=CCCC3)cc2C1=O
1 | -14[16.7 µM] | Cc1noc(C)c1S(=O)(=O)N(C)C[C@H]1OCCCC[C@H](C)Oc2ccc(NC(=O)c3ccccc3)cc2C(=O)N([C@H](C)CO)C[C@@H]1C
34 | -18[16.7 µM] | COCC(=O)Nc1ccc2c(c1)[C@@H]1C[C@H](CC(=O)NCc3ccc(OC)cc3)O[C@H](CO)[C@@H]1O2
6 | -9[16.7 µM] | C[C@H]1CN([C@@H](C)CO)C(=O)c2cc(NC(=O)CCN3CCOCC3)ccc2O[C@@H]1CN(C)Cc1ccccc1
6 | 19[16.7 µM] | C[C@H](CO)N1C[C@H](C)[C@H](CN(C)S(=O)(=O)c2cn(C)cn2)Oc2ccc(NC(=O)C3CCCCC3)cc2C1=O
-3 | 9[16.7 µM] | CCCC#Cc1cnc2c(c1)C(=O)N([C@@H](C)CO)C[C@@H](C)[C@H](CN(C)Cc1ccc3c(c1)OCO3)O2
10 | -17[16.7 µM] | C[C@@H]1CN([C@@H](C)CO)C(=O)c2cc(NC(=O)CCC(F)(F)F)ccc2O[C@H]1CN(C)CC1CC1
3 | 21[16.7 µM] | C[C@@H]1CN([C@@H](C)CO)C(=O)c2cc(/C=C/c3ccccc3)cnc2O[C@@H]1CN(C)C(=O)c1ccncc1
-8 | -5[16.7 µM] | COc1ccc(S(=O)(=O)N(C)C[C@@H]2OCCCC[C@@H](C)Oc3ccc(NC(=O)CCC(F)(F)F)cc3C(=O)N([C@H](C)CO)C[C@@H]2C)cc1
-10 | 9[16.7 µM] | C[C@H](NC(=O)C[C@@H]1CC[C@@H](NC(=O)C2CC2)[C@H](CO)O1)c1ccccc1
4 | -1[16.7 µM] | Cc1noc(C)c1NC(=O)N(C)C[C@@H]1OCCCC[C@@H](C)Oc2ccc(NS(=O)(=O)c3c(C)noc3C)cc2C(=O)N([C@H](C)CO)C[C@H]1C
5 | 13[16.7 µM] | C[C@@H]1CN([C@@H](C)CO)S(=O)(=O)c2ccc(C#CC3CCCC3)cc2O[C@@H]1CN(C)S(C)(=O)=O
-3 | -6[16.7 µM] | C[C@H]1CN([C@@H](C)CO)C(=O)c2cc(NS(C)(=O)=O)ccc2O[C@@H]1CN(C)C(=O)Nc1ccc(C(F)(F)F)cc1
-5 | 1[16.7 µM] | C[C@@H]1CN([C@H](C)CO)C(=O)c2cc(C#CC3CCCCC3)cnc2O[C@@H]1CN(C)C(=O)Cc1ccccn1

Compound profiles (already shown). Order of values: Yeast UUG start	HIV Env fusion
COCC(=O)Nc1ccc2c(c1)[C@@H]1C[C@H](CC(=O)NCc3ccc(OC)cc3)O[C@H](CO)[C@@H]1O2 in the list: 34	-18[16.7 µM]
CCCC#Cc1cnc2c(c1)C(=O)N([C@@H](C)CO)C[C@@H](C)[C@H](CN(C)Cc1ccc3c(c1)OCO3)O2 in the list: -3	9[16.7 µM]

Remaining list, next part:
Yeast UUG start | HIV Env fusion | SMILES
-2 | 15[16.7 µM] | C[C@@H]1CCCCO[C@@H](CN(C)Cc2ccc(C(=O)O)cc2)[C@@H](C)CN([C@H](C)CO)C(=O)c2cc(NS(=O)(=O)c3ccc(F)cc3)ccc2O1
-10 | 10[16.7 µM] | O=C(C[C@@H]1CC[C@H](NC(=O)Nc2ccc3c(c2)OCO3)[C@H](CO)O1)NCc1ccc(F)cc1
5 | 2[16.7 µM] | O=C(CCN1CCCCC1)NCC[C@H]1CC[C@@H](NC(=O)Cc2cccnc2)[C@H](CO)O1
-5 | 13[16.7 µM] | C[C@@H]1CN([C@H](C)CO)C(=O)Cc2cc(NC(=O)C3CCCCC3)ccc2O[C@@H]1CN(C)Cc1ccc(C(=O)O)cc1
18 | 0[16.7 µM] | C[C@@H]1CCCCO[C@@H](CN(C)C(=O)Cc2ccccc2)[C@H](C)CN([C@H](C)CO)C(=O)c2cc(NC(=O)C3CCCCC3)ccc2O1
18 | 10[16.7 µM] | C[C@@H]1CN([C@H](C)CO)C(=O)c2cc(NC(=O)Nc3ccccc3)ccc2O[C@H]1CN(C)Cc1ccc(Oc2ccccc2)cc1
23 | -27[16.7 µM] | C[C@@H]1CN([C@@H](C)CO)C(=O)c2cc(NS(=O)(=O)c3ccc(F)cc3)ccc2O[C@@H]1CN(C)C(=O)Nc1ccccc1
-8 | 7[16.7 µM] | CC(=O)Nc1ccc2c(c1)C(=O)N(C)[C@@H]1CC[C@@H](CC(=O)Nc3cn(C)nc3C)O[C@H]1CO2
3 | 46[16.7 µM] | O=C(C[C@H]1C[C@@H]2c3cc(NS(=O)(=O)c4ccc(F)cc4)ccc3O[C@@H]2[C@@H](CO)O1)NCCc1ccccc1

Entries from the list above with a Cl atom:
Yeast UUG start | HIV Env fusion | SMILES
-5 | 41[16.7 µM] | C[C@H]1CN([C@@H](C)CO)C(=O)Cc2cc(NC(=O)Nc3ccc4c(c3)OCO4)ccc2O[C@H]1CN(C)Cc1ccc(Cl)c(Cl)c1
13 | -72[16.7 µM] | C[C@H]1CN([C@@H](C)CO)C(=O)c2cccc(NC(=O)NC3CCCCC3)c2O[C@H]1CN(C)Cc1ccc(Cl)c(Cl)c1
6 | 19[16.7 µM] | C[C@@H]1CN([C@H](C)CO)C(=O)c2cc(NC(=O)Nc3ccccc3)ccc2O[C@@H](C)CCCCO[C@@H]1CN(C)Cc1ccc(Cl)c(Cl)c1
1 | 18[16.7 µM] | C[C@H]1CN([C@@H](C)CO)C(=O)Cc2cc(NC(=O)Nc3cccc4ccccc34)ccc2O[C@@H]1CN(C)S(=O)(=O)c1ccc(Cl)cc1
